Source: PubChem BioAssay
Sa growth 42C: inhibitors of Staphylococcus aureus growth at 42 °C; S. aureus RN4220 growth, OD600, 20 h; active compounds read low; relative growth, % (test concentration not listed); 170,000 compounds, 0.53% hits;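 active = growth at 42 °C up to 50% and 20 or more points under that at 30 °C, or under 10% at both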;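 also: 300 nL library stock went into each well; scaled to the means of positive and negative controls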
HCMV UL50-53 inh: inhibitors of HCMV UL50-UL53 nuclear egress complex interaction; HTRF UL50-UL53 interaction, normalized percent inhibition; inhibition, % (no concentration beside the values); 190,000 compounds, 0.15% hits;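 active = both replicates at 50% or more, plus weaker picks with an unusually low signal ratio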;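 also: stock transfer was 100 nL into about 20 µL; 0% = negative control wells and 100% = wells with untagged competitor protein; inactives centre near -12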
GIV-Gai inh: inhibitors of GIV GBA-motif binding to rat Galpha-i3; AID 1224905; percent of control (FP), % (test concentration not listed); 210,000 compounds, 0.42% hits; Galpha-i3/FITC-GIV peptide fluorescence polarization, 90 min; active compounds read low; scaled: aluminum fluoride 0%, vehicle 100%; P08753;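 active = replicate mean at 85% of control or lower, very high polarization wells dropped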;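 also: lower values mean more displacement of the GIV peptide from Galpha-i3; wells of about 15 µL received 100 nL stock; the first replicate is given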
Target sequence (P08753 whole entry, looked up): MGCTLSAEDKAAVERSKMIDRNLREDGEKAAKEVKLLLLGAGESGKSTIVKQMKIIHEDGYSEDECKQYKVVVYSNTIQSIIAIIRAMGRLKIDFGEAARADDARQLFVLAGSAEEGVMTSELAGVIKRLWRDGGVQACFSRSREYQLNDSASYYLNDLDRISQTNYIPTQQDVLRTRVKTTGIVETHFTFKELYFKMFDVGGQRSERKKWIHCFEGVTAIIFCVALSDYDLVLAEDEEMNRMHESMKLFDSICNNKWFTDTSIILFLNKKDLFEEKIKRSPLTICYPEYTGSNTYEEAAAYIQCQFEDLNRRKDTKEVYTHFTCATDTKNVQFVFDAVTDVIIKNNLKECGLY
Sa growth 42C second temp: also measured in Sa growth 42C; calls as there; relative growth, %; measured here: growth at 30 °C;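 optical density after 20 h as mean of two plates; 100% = untreated growth and lower means inhibition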
Starred values were filed as active, the others as inactive; x = no result given; & = joins results of further samples. Rows were taken by chance; 0.8% or so of the library scored in one or more.

cpd	Molecule	Sa growth 42C	HCMV UL50-53 inh	Sa growth 42C second temp	GIV-Gai inh
1	COc1ccc(N2CCN(C(=O)CSc3n[nH]c(-c4ccccc4Cl)n3)CC2)cc1	116	x	98	105
2	Cc1sc(C(=O)NCCc2ccccc2)c2nc(C)n(CC(=O)NCCc3ccccc3)c(=O)c12	92	-1	94	101
3	CCC(Sc1nnc2c(n1)[nH]c1ccccc12)C(=O)Nc1ccccc1OC (stereo unspecified)	105	-9	96	101
4	Cc1ccc2nc(CCc3cccc(NC(=O)CN4C(=O)COc5ccc(Cl)cc54)c3)[nH]c2c1	x	-16	x	108
5	OCC(O)CN(c1ccccc1)c1ccccc1 (stereo unspecified)	111	0	89	105
6	COc1ccc(Cl)cc1NC(=O)C(C)n1c(=O)cc(C(F)(F)F)c2c(C)nn(C)c21 (stereo unspecified)	94	x	100	104
7	CC1=CC(=C2C(=O)NC(=O)NC2=O)C=C(C)O1	106	-73	101	x
8	C=CCN(c1ccccc1C(=O)NCC(=O)O)S(=O)(=O)c1ccccc1	107	10	102	105
9	CC(C)CN(CC(C)C)C(=O)C1CCN(S(=O)(=O)c2cccc3nsnc23)CC1	95	-70&-38	92	101&104
10	CCN1CCc2nc(NC(=O)Cc3cn4ccsc4n3)sc2C1	94	-5	88	x
11	CCC(C)N(Cc1c[nH]c2ccccc12)C(=S)Nc1cccc(C)c1 (stereo unspecified)	98	x	87	98
12	COc1ccc(-c2cc3nc(C)cc(C)n3n2)cc1	85	x	95	101
13	C/C(N)=C(/C#N)C(=O)COc1ccc(C#N)cc1	87	-27	81	x
14	COc1cc(OC)cc(-c2nnc(SC(C)C(=O)c3ccccc3)o2)c1 (stereo unspecified)	85	-22	85	x
15	O=c1ccc2cc(S(=O)(=O)N3CCCC3)ccc2[nH]1	96	x	81	102

Some of the entries so far, field by field.
#6 COc1ccc(Cl)cc1NC(=O)C(C)n1c(=O)cc(C(F)(F)F)c2c(C)nn(C)c21 (stereo unspecified)
  Sa growth 42C = 94 | HCMV UL50-53 inh = x | Sa growth 42C second temp = 100 | GIV-Gai inh = 104

#7 CC1=CC(=C2C(=O)NC(=O)NC2=O)C=C(C)O1
  Sa growth 42C = 106 | HCMV UL50-53 inh = -73 | Sa growth 42C second temp = 101 | GIV-Gai inh = x

#8 C=CCN(c1ccccc1C(=O)NCC(=O)O)S(=O)(=O)c1ccccc1
  Sa growth 42C = 107 | HCMV UL50-53 inh = 10 | Sa growth 42C second temp = 102 | GIV-Gai inh = 105

#9 CC(C)CN(CC(C)C)C(=O)C1CCN(S(=O)(=O)c2cccc3nsnc23)CC1
  Sa growth 42C = 95 | HCMV UL50-53 inh = -70&-38 | Sa growth 42C second temp = 92 | GIV-Gai inh = 101&104

3 structures already listed, ordered by number of heavy atoms, falling:
cpd	Molecule	Sa growth 42C	HCMV UL50-53 inh	Sa growth 42C second temp	GIV-Gai inh
3	CCC(Sc1nnc2c(n1)[nH]c1ccccc12)C(=O)Nc1ccccc1OC (stereo unspecified)	105	-9	96	101
14	COc1cc(OC)cc(-c2nnc(SC(C)C(=O)c3ccccc3)o2)c1 (stereo unspecified)	85	-22	85	x
12	COc1ccc(-c2cc3nc(C)cc(C)n3n2)cc1	85	x	95	101

(more compounds)
cpd	Molecule	Sa growth 42C	HCMV UL50-53 inh	Sa growth 42C second temp	GIV-Gai inh
16	COP(=O)(CC(=O)c1ccccc1)CC(=O)c1ccccc1	102	-12	94	x
17	CCOc1cc(-c2nc(-c3ccc(-c4ccccc4)nc3OCC)no2)cc(OCC)c1OCC	80	-8	78	106
18	O=C(c1cc2ccccc2s1)N1CCC(O)(c2ccc(Cl)cc2)CC1	110	-19	105	102
19	CCCC(C(=O)Nc1cc(Cl)c(OC)cc1OC)N1Cc2ccccc2C1=O (stereo unspecified)	x	-6	x	113
20	COCCNc1oc(COc2ccc(Br)cc2)nc1C#N	118	-9	90	102
21	S=c1[nH]nc(NCCc2ccc(Cl)cc2)s1	111	-2	42	108
22	O=C(NCc1ccccn1)C(c1ccccc1)c1ccccc1	135	5	85	x
23	CCOC(=O)N1CCc2c(sc3c2c(=O)n(CCc2ccccc2)c(=O)n3CC(=O)Nc2ccccc2C)C1	98	-42	90	103
24	C=CCn1c(N2CCC(C(N)=O)CC2)nc2c1c(=O)n(C)c(=O)n2C	109	-4	88	94
25	Cc1nnc(CSc2ccc(Cl)c(C(F)(F)F)c2)o1	103	10	102	x
26	Cc1ccccc1N1C(=O)N(c2ccc(F)cc2)C2CS(=O)(=O)CC21 (stereo unspecified)	x	-12	x	99
27	O=S(=O)(c1cccc(-c2n[nH]c(=S)n2-c2ccccc2)c1)N1CCCC1	91	-24	87	x
28	O=C(NCC1(N2CCOCC2)CCCCC1)c1ccc(Cl)c(S(=O)(=O)NCc2ccco2)c1	89	-26	90	x
29	CC1CCN(c2nn3c(=O)c(C(=O)NCCc4ccc(Cl)cc4)cnc3s2)CC1	83	x	87	97
30	O=C1C=C(c2ccccc2)C(=O)N1c1cccc(Cl)c1	98	-3	34	106
31	COC(=O)c1ccc(CSc2nncn2-c2ccccc2)cc1	78	-20	87	x
32	COc1ccc(NC(=O)c2oc3ccccc3c2NC(=O)COc2ccc(F)cc2)c(OC)c1	109	-35	83	101
33	CC(=O)N1CCC(N(CCN2CCOCC2)C(=S)Nc2cc(F)cc(F)c2)CC1	100	-29	93	106
34	O=c1[nH]cc(Sc2cccc3cccnc23)c(=O)[nH]1	54	-6	62	x
35	CCOc1ccc(CNC(=O)C2CCCN(S(=O)(=O)c3ccc4c(c3)CCCC(=O)N4)C2)cc1 (stereo unspecified)	113	x	87	107
36	Cn1nc(-c2ccccc2)cc1-n1cnc2ccccc21	89	-28	75	x
37	CC(=O)Nc1ccc(NC(=O)CN2Cc3ccccc3C2=O)cc1	101	-21	98	102
38	Cc1ccc(CCNC(=O)CCn2ccc3cc(S(=O)(=O)N4CCC(C)CC4)ccc32)cc1	x	0	x	99
39	O=C(CCCn1c(=O)c2ccccc2n(CC(=O)Nc2cccc(C(F)(F)F)c2)c1=O)NCc1ccc2c(c1)OCO2	89	10	92	107
40	CC1CCCN(C(=O)COC(=O)c2cccnc2Nc2cccc(C(F)(F)F)c2)C1 (stereo unspecified)	92	-1	93	x
41	COCc1cc(C)nc2sc3c(c12)NCN(c1cccc(OC)c1)C3=O	x	-104	x	111
42	O=c1c2ccccc2c2c(O)nc(-c3ccccc3)n2n1Cc1ccccc1	97	-3	95	x
43	c1ccc2[nH]c(NCCN3CCOCC3)nc2c1	100	-3	90	99
44	CCc1ccccc1NC(=O)C1CC(c2cccc(OC)c2)=NO1 (stereo unspecified)	93	-5	77	98
45	O=c1oc2ccc3ccccc3c2cc1-c1nn(-c2ccccc2)cc1/C=N/O	110	x	93	104
46	Cc1cccc(S(=O)Cc2ccc(C(=O)N3CCCC3)o2)c1 (stereo unspecified)	104	-27	94	104
47	CN(C(=O)CS(=O)(=O)c1cn(CC(=O)N2CCOCC2)c2ccccc12)c1ccccc1	107	x	88	104
48	CC(C)C(=O)Nc1ccc(-c2cn3ccccc3n2)cc1	96	-6	80	105
49	Cc1ccccc1Oc1ccc(Oc2ccccc2C)nn1	105	-13	86	x
50	Clc1ccc(NCc2ccsc2)cc1	94	-2	90	102
51	COc1ccc(NC(=O)CCc2nnc(C(=O)Nc3ccc(C)cc3)s2)cc1	x	2	x	97
52	NC(=O)C1=CN(C(=O)Nc2ccccc2)CCC1C(F)(F)F (stereo unspecified)	103	-14	88	105
53	C=Cc1ccc(CN2C(=O)N(c3ccc(C)c(C)c3)S(=O)(=O)c3ccccc32)cc1	95	x	96	103
54	CCC1CCCCN1C(=O)c1cc(Cl)ccc1OC (stereo unspecified)	77	-30	84	101
55	COC(=O)c1[nH]c2c(c1C)C(=O)CCC2	103	1&7	99	107&102
56	COCCn1c(SCC(N)=O)nc2c(c1=O)SCC2	94	-2	97	104
57	Cc1ccc2nc(NC(=O)C3SC(=NCCN4CCOCC4)C(C(=O)NCc4ccco4)=C3N)sc2c1 (stereo unspecified)	119	-24	66	x
58	O=C1C(Nc2ccccc2)=CC(c2ccc(O)cc2)N1c1ccccc1 (stereo unspecified)	86	-9	88	x
59	CCOc1ccc(-c2nonc2NC(=O)C(c2ccccc2)c2ccccc2)cc1	112	-6	93	105
60	COc1ccc(CNC(=O)c2ccc3[nH]c(C)c(C)c3c2)c(OC)c1	93	x	86	106
61	CCOc1ccc(NC(=O)CSc2nnc3ccc(C(=O)Nc4ccc(C)cc4)cn23)cc1	x	14	x	101
62	CCCN=c1cc(-c2ccccc2)oc2ccc(C)cc12	109	x	53	98
63	Cc1noc(NS(=O)(=O)c2ccc(N3Cc4ccccc4C3=O)cc2)c1C	96	0	91	x
64	CCOC(=O)c1c(C)oc2ccc(N(C(C)=O)S(=O)(=O)c3c(C)cc(C)cc3C)cc12	102	14	102	105
65	Cc1ccc(Cn2c(CNS(=O)(=O)c3ccc(F)c(Cl)c3)nc3cccnc32)cc1	104	x	106	114
66	Cc1ccc(Cl)cc1NC(=O)c1cc2c(=O)n3cccc(C)c3nc2n1C	120	-15	96	104
67	CCN(CC)c1cccc(OC(=O)/C=C/c2ccco2)c1	99	-40	91	x
68	O=C1c2oc3ccc(F)cc3c(=O)c2C(c2cccc(O)c2)N1CCCN1CCOCC1 (stereo unspecified)	89	-46	89	104
69	COc1ccc(-c2nnc(SCC(=O)N(C)C)n2N)cc1OC	90	-18	90	x
70	Cc1c(S(=O)(=O)c2ccccn2)c(N)n(Cc2ccccc2Cl)c1C	88	1	49	130
71	O=C(CC1(O)C(=O)Nc2ccccc21)c1ccco1 (stereo unspecified)	x	-42	x	107
72	CSc1nc2ccccc2n(C)c1=O	100	-61	77	101
73	O=C(NC1CC1)c1cc2ccccc2oc1=O	103	x	86	96
74	Cc1ccc(OC(=O)C2COc3ccccc3O2)cc1C (stereo unspecified)	107	-13	92	x
75	Cc1ccc(C2CC(c3ccccc3C)n3nc(N)nc3N2)cc1 (stereo unspecified)	76	x	91	100

Further entries:
cpd	Molecule	Sa growth 42C	HCMV UL50-53 inh	Sa growth 42C second temp	GIV-Gai inh
76	CC1CCC(NC(=O)C2c3cccn3CC(=O)N2c2cccc(Cl)c2)CC1 (stereo unspecified)	x	-27	x	105
77	Cc1cc(C(=O)Nc2ccc(C(C)C)cc2)n(-c2ccccc2)n1	83	x	92	105
78	C1=Nn2c(nnc2-c2ccncc2)SC(c2ccccc2)=C1	90	-38	90	101
79	Oc1c(C(c2cccs2)N2CCN(c3ccccc3)CC2)sc2ncnn12 (stereo unspecified)	87	-65	85	96
80	CN(c1ccccc1)S(=O)(=O)c1nnc(NC(=O)COc2ccccc2)s1	89	-12	75	101
81	CCOC(=O)c1sc2nc(C)cc(C)c2c1NC(=O)c1cccs1	94	4	99	x
82	CCOc1cc(C2C(C(=O)N3CCCCC3)=C(C)NC3=C2C(=O)CCC3)ccc1OC(C)=O (stereo unspecified)	89	-22	80	100
83	Nc1cccc2nonc12	76	-98	13	103
84	Cc1noc(C)c1CN(C(=S)NC(C)C)c1ccccc1	84	-7	91	x
85	Cc1ccc(N)c(C(=O)O)c1Br	115	-15	85	108
86	O=C(NC1CCCc2ccccc21)c1ccc2c(c1)OCO2 (stereo unspecified)	115	3	98	100
87	FC(F)(F)COc1ccc(-c2nnc(SCc3ccccc3)o2)cn1	114	-7	97	99
88	O=C1CCS(=O)(=O)N1c1ccc(S(=O)(=O)Nc2ccc(F)cc2)cc1	x	-33	x	111
89	CC(C)C(NS(=O)(=O)c1cccc2nsnc12)C(=O)NC1CCCC(C)C1C (stereo unspecified)	120	x	89	105
90	CC(C)(C)C(=O)NCCc1nc2ccccc2n1CCCCOc1ccc(Cl)cc1	110	-19	81	99
91	O=C(CSc1nnc(CNc2cccc(Cl)c2)o1)Nc1cccc(Cl)c1	107	-26	72	99
92	O=S(=O)(Nc1ccccc1C(F)(F)F)c1cccs1	112	34	88	98
93	COc1ccc(OCC(=O)N(C)C)cc1	101	-9	103	107
94	O=C(Nc1ccc(S(=O)(=O)N(Cc2ccccc2)c2ccccc2)cc1)c1ccccc1F	117	-4	95	98
95	O=C(NC1CCCC1)c1cc(-c2ccc(Cl)s2)nc2ccccc12	111	x	89	108
96	CCCSc1nnc(Cn2c(=O)sc3ccccc32)n1CCc1ccccc1	92	x	91	101
97	CCc1ccc2[nH]c(=O)c(C(c3nnnn3C(C)(C)C)N3CCCCC3)cc2c1 (stereo unspecified)	107	-30	64	117
98	O=C1c2cc(OCCN3CCOCC3)ccc2-c2ccc(OCCN3CCOCC3)cc21	91	-101	85	103
99	COc1cccc(-n2c(C)nc3c(cnn3-c3ccc(C)c(C)c3)c2=O)c1	101	-2	84	103
100	O=C(Oc1ccc2c(c1)OCO2)c1cc2c(s1)CCCC2	93	-25	91	x
101	COc1ccc(O)c(C(=O)c2cc(C#N)c(=O)n(CCN3CCOCC3)c2)c1	133	-16	100	x
102	CC1(C)CC(=O)C=C(Nc2ccc(Br)cn2)C1	90	-11	91	x
103	Nc1nn(-c2ccccc2)nc1C(=O)OCc1ccccc1Br	110	-13	81	103
104	Cc1ccc(CN2C(=O)C3CCCCC3C2=O)cc1S(=O)(=O)NC1CCCc2ccccc21 (stereo unspecified)	x	-8	x	99
105	CN1CCN(c2ccccc2C=Nc2ccc(C(C)(C)C)cc2)CC1	96	-9	97	102

Grouped by structure: the compounds so far containing a COOH group
cpd	Molecule	Sa growth 42C	HCMV UL50-53 inh	Sa growth 42C second temp	GIV-Gai inh
8	C=CCN(c1ccccc1C(=O)NCC(=O)O)S(=O)(=O)c1ccccc1	107	10	102	105
85	Cc1ccc(N)c(C(=O)O)c1Br	115	-15	85	108
